# HIV Env fusion = inhibitors of HIV Env-mediated cell fusion; HeLa-JRFL Env/CEM21 cell fusion, luciferase; inhibition, % at 12.3 µM; 1.1% of 360,000 active;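 active = mean replicate inhibition score of at least 50 and every replicate individually at or above 50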;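 note: 0% = plate neutral controls and 100% = maraviroc near 300 nM; one replicate is shown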
# UUG fidelity = modulators of start codon recognition fidelity in yeast | S. cerevisiae UUG-firefly luciferase reporter, luminescence/redox ratio | activity score, % at 18.7 µM | 0.13% of 350,000 active;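 active = replicate mean at a twofold rise or more, about +100% in these data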;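 note: firefly luciferase made from a UUG start codon reports start codon fidelity; reporter light over untreated wells divided by growth signal over untreated wells; some hits fall short of that in this replicate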
# Starred values were filed as active, the others as inactive; [ ] = another dose, or the depositor's remark. This is a subset; count on the stated rates, not on these rows.
HIV Env fusion,UUG fidelity,Structure
-4[16.7 µM],13,CC(=O)N(C)C[C@H]1Oc2cc(Br)ccc2S(=O)(=O)N([C@@H](C)CO)C[C@H]1C
24[16.7 µM],11,CC(C)NC(=O)Nc1ccc2c(c1)C(=O)N([C@H](C)CO)C[C@H](C)[C@@H](CN(C)C(=O)c1ccccc1)OCCCC[C@@H](C)O2
22[16.7 µM],-4,C[C@H](CO)N1C[C@H](C)[C@H](CN(C)S(=O)(=O)c2ccc(F)cc2)Oc2ccc(NC(=O)Nc3ccc(C(F)(F)F)cc3)cc2C1=O
-8[16.7 µM],-7,C[C@H](CO)N1C[C@H](C)[C@@H](CN(C)C(=O)NC2CCCCC2)OCCCC[C@H](C)Oc2ccc(NC(=O)CCC(F)(F)F)cc2C1=O
-30[16.7 µM],-2,COc1ccc(NC(=O)N(C)C[C@H]2Oc3ncc(-c4cccnc4)cc3C(=O)N([C@@H](C)CO)C[C@@H]2C)cc1
77*[16.7 µM],-2,CC(C)CC#Cc1ccc2c(c1)O[C@@H](CN(C)S(=O)(=O)c1cccc(F)c1)[C@@H](C)CN([C@@H](C)CO)S2(=O)=O
0[16.7 µM],11,C[C@H]1CN([C@@H](C)CO)C(=O)c2cc(-c3ccccc3)cnc2O[C@H]1CN(C)C(=O)c1cccc(F)c1
-18[16.7 µM],8,CCCC#Cc1cnc2c(c1)C(=O)N([C@H](C)CO)C[C@H](C)[C@H](CN(C)S(=O)(=O)c1cn(C)cn1)O2
6[16.7 µM],-4,CN(C)CC(=O)Nc1ccc2c(c1)[C@@H]1C[C@@H](CC(=O)NC3CCCC3)O[C@H](CO)[C@@H]1O2
23[16.7 µM],-5,Cc1ccc(-c2cnc3c(c2)C(=O)N([C@H](C)CO)C[C@@H](C)[C@@H](CN(C)CC2CCOCC2)O3)cc1
-2[16.7 µM],17,C[C@@H]1CN([C@@H](C)CO)S(=O)(=O)c2ccc(C#Cc3ccc(F)cc3)cc2O[C@@H]1CN(C)C(=O)c1ccccn1
-17[16.7 µM],5,CN1C(=O)c2cc(NC(=O)NC3CCCC3)ccc2OC[C@@H]2O[C@@H](CC(=O)NC3CCC3)CC[C@H]21
11[16.7 µM],-3,C[C@@H]1CN([C@H](C)CO)C(=O)c2cccc(NC(=O)c3nc4ccccc4s3)c2O[C@H]1CN(C)Cc1ccc(C(=O)O)cc1
-44[16.7 µM],17,C[C@@H]1CCCCO[C@H](CN(C)Cc2ccncc2)[C@@H](C)CN([C@@H](C)CO)C(=O)c2cc(NC(=O)Nc3cccc4ccccc34)ccc2O1
44[16.7 µM],16,COc1ccc(S(=O)(=O)Nc2ccc3c(c2)CC(=O)N([C@H](C)CO)C[C@H](C)[C@@H](CN(C)Cc2ccc(C(F)(F)F)cc2)O3)cc1
-5[16.7 µM],-6,CNC[C@H]1Oc2c(NC(=O)c3cnccn3)cccc2C(=O)N([C@H](C)CO)C[C@H]1C

# Compounds listed so far that contain a CF3 group (3):
HIV Env fusion,UUG fidelity,Structure
22[16.7 µM],-4,C[C@H](CO)N1C[C@H](C)[C@H](CN(C)S(=O)(=O)c2ccc(F)cc2)Oc2ccc(NC(=O)Nc3ccc(C(F)(F)F)cc3)cc2C1=O
-8[16.7 µM],-7,C[C@H](CO)N1C[C@H](C)[C@@H](CN(C)C(=O)NC2CCCCC2)OCCCC[C@H](C)Oc2ccc(NC(=O)CCC(F)(F)F)cc2C1=O
44[16.7 µM],16,COc1ccc(S(=O)(=O)Nc2ccc3c(c2)CC(=O)N([C@H](C)CO)C[C@H](C)[C@@H](CN(C)Cc2ccc(C(F)(F)F)cc2)O3)cc1

# Continued.
HIV Env fusion,UUG fidelity,Structure
2[16.7 µM],-2,C[C@H](CO)N1C[C@H](C)[C@H](CN(C)CC2CCCCC2)Oc2c(NC(=O)c3ccc(-c4nccs4)cc3)cccc2C1=O
-4[16.7 µM],-7,Cc1ccc(-c2cnc3c(c2)C(=O)N([C@H](C)CO)C[C@H](C)[C@@H](CN(C)CC2CCOCC2)O3)cc1
9[16.7 µM],-6,CN(C)C(=O)C[C@H]1C[C@@H]2c3cc(NS(C)(=O)=O)ccc3O[C@@H]2[C@H](CO)O1
-2[16.7 µM],-6,C[C@@H]1CCCCO[C@H](CN(C)S(=O)(=O)c2ccc(Cl)cc2)[C@@H](C)CN([C@H](C)CO)C(=O)c2cc(NC(=O)Cc3ccccc3)ccc2O1
-1[16.7 µM],-4,C[C@H](CO)N1C[C@H](C)[C@@H](CN(C)C(=O)Nc2ccc(N3CCCCC3)cc2)OCc2cnnn2CCCC1=O
2[16.7 µM],0,N#C[C@H]1[C@H](c2ccc(-c3cncnc3)cc2)[C@@H](CO)N1C(=O)C1CCC1
17[16.7 µM],10,CCCC#Cc1cnc2c(c1)C(=O)N([C@H](C)CO)C[C@H](C)[C@@H](CN(C)C(=O)NCCC)O2
15[16.7 µM],-11,O=C(C[C@H]1C[C@H]2c3cc(NC(=O)c4ccc5c(c4)OCO5)ccc3O[C@H]2[C@H](CO)O1)NCc1ccc(Cl)cc1

# Compound profiles, as listed above:
# CCCC#Cc1cnc2c(c1)C(=O)N([C@H](C)CO)C[C@H](C)[C@@H](CN(C)C(=O)NCCC)O2 reads HIV Env fusion = 17[16.7 µM]; UUG fidelity = 10
# Cc1ccc(-c2cnc3c(c2)C(=O)N([C@H](C)CO)C[C@H](C)[C@@H](CN(C)CC2CCOCC2)O3)cc1 reads HIV Env fusion = -4[16.7 µM]; UUG fidelity = -7

# Remaining list, next part:
HIV Env fusion,UUG fidelity,Structure
-8[16.7 µM],13,O=C(CCN1CCCCC1)N[C@H]1CC[C@H](CCNS(=O)(=O)c2ccccc2)O[C@H]1CO
-4[16.7 µM],-3,C[C@H]1CN([C@@H](C)CO)C(=O)c2cc(NC(=O)C3CC3)ccc2O[C@H]1CN(C)CC1CCCCC1
7[16.7 µM],-4,CNC[C@H]1Oc2cc(C#Cc3ccccc3OC)ccc2S(=O)(=O)N([C@@H](C)CO)C[C@@H]1C
-10[16.7 µM],24,C[C@@H]1CN([C@@H](C)CO)C(=O)c2cc(C#CCN(C)C)cnc2O[C@@H]1CN(C)S(=O)(=O)c1cn(C)cn1
-3[16.7 µM],10,COCC#Cc1cnc2c(c1)C(=O)N([C@H](C)CO)C[C@@H](C)[C@H](CN(C)C(=O)C1CC1)O2
-9[16.7 µM],10,C[C@@H]1CCCCO[C@H](CN(C)C(=O)NC2CCCCC2)[C@@H](C)CN([C@H](C)CO)C(=O)c2cc(NC(=O)CCCN(C)C)ccc2O1
-14[16.7 µM],-14,CO[C@H]1CN(C)C(=O)c2cc(NC(C)=O)ccc2OC[C@H](C)N(Cc2ccccc2F)C[C@H]1C
-4[16.7 µM],-4,CC(C)C(=O)Nc1ccc2c(c1)C(=O)N(C)[C@@H]1CC[C@@H](CC(=O)NCC3CC3)O[C@H]1CO2
-23[16.7 µM],28,C[C@H]1CN([C@@H](C)CO)C(=O)c2cc(NS(=O)(=O)c3ccc(F)cc3)ccc2O[C@@H]1CN(C)S(=O)(=O)c1ccccc1
3[16.7 µM],-1,C[C@@H]1CN([C@H](C)CO)C(=O)CCCn2nncc2CO[C@@H]1CN(C)Cc1cccc(C(F)(F)F)c1
-9[16.7 µM],-11,O=C(NCc1ccccc1)[C@]1(CCS(=O)(=O)c2ccccc2)N=C(c2ccc(OCCCO)cc2)O[C@@H]1c1ccccc1
-3[16.7 µM],10,CNC[C@H]1OCCCC[C@H](C)Oc2ccc(NS(C)(=O)=O)cc2C(=O)N([C@H](C)CO)C[C@H]1C
3[16.7 µM],5,O=C(Cc1ccccc1)N[C@H]1C=C[C@@H](CC(=O)N2CCOCC2)O[C@@H]1CO
-4[16.7 µM],-8,C[C@@H]1CN([C@@H](C)CO)C(=O)Cc2cc(NC(=O)Cc3cn(C)c4ccccc34)ccc2O[C@@H]1CN(C)C(=O)Nc1ccc(C(F)(F)F)cc1
5[16.7 µM],7,COC(=O)C[C@@H]1CC[C@@H]2[C@@H](COc3ccc(NC(=O)Nc4ccccc4C)cc3C(=O)N2C)O1
-14[16.7 µM],-16,C[C@@H]1CCCCO[C@H](CN(C)Cc2ccc(C(=O)O)cc2)[C@H](C)CN([C@H](C)CO)C(=O)c2cc(NC(=O)Nc3ccccc3)ccc2O1
20[16.7 µM],1,COc1ccc(S(=O)(=O)N(C)C[C@@H]2OCCCC[C@@H](C)Oc3ccc(NC(=O)Nc4c(C)noc4C)cc3C(=O)N([C@H](C)CO)C[C@H]2C)cc1
-37[16.7 µM],0,Cc1ccc(S(=O)(=O)Nc2ccc3c(c2)C(=O)N([C@H](C)CO)C[C@@H](C)[C@@H](CN(C)S(=O)(=O)c2c(C)noc2C)OCCCC[C@H](C)O3)cc1
-14[16.7 µM],-14,Cc1ccc(S(=O)(=O)N(C)C[C@H]2OCCCC[C@H](C)Oc3ccc(NC(=O)Nc4ccccc4)cc3C(=O)N([C@H](C)CO)C[C@@H]2C)cc1
-8[16.7 µM],-6,Cc1ccc(S(=O)(=O)Nc2ccc3c(c2)C(=O)N([C@H](C)CO)C[C@H](C)[C@H](CN(C)S(=O)(=O)c2cn(C)cn2)O3)cc1
-21[16.7 µM],-5,CC(C)NC(=O)N(C)C[C@H]1Oc2ncc(-c3ccccc3F)cc2C(=O)N([C@@H](C)CO)C[C@@H]1C
8[16.7 µM],-17,C[C@@H]1CN([C@H](C)CO)C(=O)c2cccc(NC(=O)C3CCOCC3)c2O[C@@H]1CN(C)Cc1ccc(C(=O)O)cc1
-6[16.7 µM],-24,CCS(=O)(=O)Nc1ccc2c(c1)C(=O)N(C)C[C@@H](OC)[C@@H](C)CN[C@H](C)CO2
-2[16.7 µM],-24,O=C(C[C@@H]1CC[C@H](NC(=O)C2CCC2)[C@H](CO)O1)NCCCN1CCOCC1
4[16.7 µM],-3,C[C@@H]1CN([C@@H](C)CO)C(=O)c2cccc(NC(=O)Nc3ccc(F)cc3)c2O[C@H]1CN(C)C(=O)Nc1ccc(C(F)(F)F)cc1
-61[16.7 µM],-12,C[C@@H]1CN([C@@H](C)CO)C(=O)Cc2cc(NS(=O)(=O)c3ccc(F)cc3)ccc2O[C@@H]1CN(C)S(=O)(=O)c1ccc(Cl)cc1
0[16.7 µM],11,O=C(Nc1ccccc1)N[C@H]1CC[C@H](CCn2cc(C3(O)CCCC3)nn2)O[C@@H]1CO
27[16.7 µM],-4,O=C(Cc1ccncc1)N[C@H]1CC[C@H](CCn2cc(-c3ccccc3F)nn2)O[C@H]1CO
18[16.7 µM],12,CCCNC(=O)N(C)C[C@H]1Oc2ncc(C#CC(C)C)cc2C(=O)N([C@@H](C)CO)C[C@@H]1C
-9[16.7 µM],0,CN(C)C(=O)C[C@H]1C=C[C@@H](NC(=O)NC2CCCC2)[C@H](CO)O1
-2[16.7 µM],12,C[C@@H]1CCCCO[C@@H](CN(C)C(=O)Nc2ccc3c(c2)OCO3)[C@H](C)CN([C@@H](C)CO)C(=O)c2cc(NC(=O)Nc3ccccc3)ccc2O1
-7[16.7 µM],12,CCC(=O)Nc1ccc2c(c1)C(=O)N(C)[C@@H]1CC[C@H](CC(=O)NCC3CCCCC3)O[C@@H]1CO2

# An excerpt from above in order of molar mass, ascending.
HIV Env fusion,UUG fidelity,Structure
18[16.7 µM],12,CCCNC(=O)N(C)C[C@H]1Oc2ncc(C#CC(C)C)cc2C(=O)N([C@@H](C)CO)C[C@@H]1C
-7[16.7 µM],12,CCC(=O)Nc1ccc2c(c1)C(=O)N(C)[C@@H]1CC[C@H](CC(=O)NCC3CCCCC3)O[C@@H]1CO2
4[16.7 µM],-3,C[C@@H]1CN([C@@H](C)CO)C(=O)c2cccc(NC(=O)Nc3ccc(F)cc3)c2O[C@H]1CN(C)C(=O)Nc1ccc(C(F)(F)F)cc1

# Going on with the list.
HIV Env fusion,UUG fidelity,Structure
-11[16.7 µM],4,O=C(Nc1ccccc1)N[C@H]1CC[C@@H](CCNS(=O)(=O)c2ccccc2F)O[C@@H]1CO
-19[16.7 µM],32,C[C@@H]1CCCCO[C@H](CN(C)Cc2ccc3c(c2)OCO3)[C@H](C)CN([C@@H](C)CO)C(=O)c2cc(NC(=O)C3CCCCC3)ccc2O1
7[16.7 µM],17,COC(=O)C(CC#Cc1ccc2c(c1)[C@]1(C(=O)N2)[C@H](c2ccc(O)cc2)N2[C@H](c3ccccc3)[C@H](c3ccccc3)OC(=O)[C@H]2[C@@H]1C(=O)NC[C@H](O)c1ccccc1)C(=O)OC
45[16.7 µM],3,CC(C)CC#Cc1ccc2c(c1)O[C@H](CN(C)S(=O)(=O)c1cccc(F)c1)[C@H](C)CN([C@@H](C)CO)S2(=O)=O
6[16.7 µM],-4,COCC#Cc1cnc2c(c1)C(=O)N([C@H](C)CO)C[C@@H](C)[C@H](CN(C)C(C)=O)O2
2[16.7 µM],-8,COc1ccc(NC(=O)Nc2ccc3c(c2)C(=O)N([C@@H](C)CO)C[C@@H](C)[C@H](CN(C)S(=O)(=O)c2ccc(OC)cc2)OCCCC[C@@H](C)O3)cc1
-8[16.7 µM],16,Cc1noc(C)c1S(=O)(=O)Nc1ccc2c(c1)CC(=O)N([C@@H](C)CO)C[C@@H](C)[C@@H](CN(C)C(=O)Nc1cccc3ccccc13)O2
39[16.7 µM],10,Cc1ccc(S(=O)(=O)N[C@@H]2C=C[C@@H](CC(=O)N3CCC(Cc4ccccc4)CC3)O[C@H]2CO)cc1
-5[16.7 µM],7,C[C@@H]1CCCCO[C@H](CN(C)C(=O)CCCN(C)C)[C@H](C)CN([C@@H](C)CO)C(=O)c2cc(NC(=O)Nc3ccc4c(c3)OCO4)ccc2O1
-1[16.7 µM],-6,C[C@@H]1CN([C@H](C)CO)S(=O)(=O)c2ccc(-c3cccc(C#N)c3)cc2O[C@@H]1CN(C)C(=O)c1cccnc1

# Screens from PubChem BioAssay.
